fixLJ activator: activators of Burkholderia fixLJ two-component system | AID 1918990 | actives 0.3% (n = 29,000) | z-score (concentration not given with the values) | B. multivorans fixK-promoter GFP reporter, 18 h; active compounds read high;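 active = replicate mean overnight rise in green fluorescent reporter signal, 3 or more SD over negative controls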;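 also: score is relative to vehicle wells of the plate; 300 nL library stock went into each well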
Active calls of the source: *; & = joins results of further samples. Not all compounds are listed (hit frequency here may not be typical).

Results for Cc1ccc(Cl)cc1-n1c(=O)c2sc3ccccc3c2n(Cc2ccccc2)c1=O ?
fixLJ activator: -0.59

What do the screens show for `COc1cc(-c2oc3ccc(C)cc3c(=O)c2O)cc(OC)c1OC`?
fixLJ activator: 1.2

What do the screens show for `Cc1nc2ccccn2c1CN1CCN(C(=O)c2ncn[nH]2)CC1`?
fixLJ activator: 0.09

Results for CCc1noc(C)c1C(=O)NC1CCCC(NC(=O)CN2C(=O)CNC2=O)C1 (stereo not drawn) ?
fixLJ activator: 1

What do the screens show for `CCc1ccccc1N(CC)C(=O)c1cc2c(s1)-c1ccccc1SC2`?
fixLJ activator: 0.2

What do the screens show for `CCc1ccc(C2CC(=O)c3c([nH]c(C(=O)OC4CCCCCC4)c3C)C2)cc1` (stereo not drawn)?
fixLJ activator: -1.4

What do the screens show for `CS(=O)(=O)CCn1ccnc1-c1nc(-c2ccc(F)cc2)cs1`?
fixLJ activator: -1.4

Results for O=c1c2sccc2n(Cc2cc(=O)n3ccccc3n2)c(=O)n1-c1cccc(C(F)(F)F)c1 ?
fixLJ activator: -1.8

Results for COc1cccc(-c2n[nH]c3c2C(c2ccccn2)N(C)C3=O)c1 (stereo not drawn) ?
fixLJ activator: -0.23

What do the screens show for `COc1ccccc1CN1CCN(C(=O)COc2cccc(C)c2)CC1`?
fixLJ activator: -1.2

How did Cn1nc2c(c1NC(=O)c1nn(C)c3ccccc13)CSC2 do in these assays?
fixLJ activator: 0.53

What do the screens show for `CN(C)CCOC(c1ccccc1)c1ccccc1` (tested in a mixture with another compound)?
fixLJ activator: 0.35

How did COc1nc2c(cc1CNC(=O)C1(C)CC1)C(=O)N(C1CCCC1)C2 do in these assays?
fixLJ activator: -0.64

How did COc1ccc(NC(=O)C(c2ccccc2)N(C)C(=O)/C=C\c2ccc3c(c2)OCO3)cc1 (stereo not drawn) do in these assays?
fixLJ activator: 2.2

What do the screens show for `Cc1nc(CN2CCCCC2=O)n(-c2ccc3c(c2)CCC3)n1`?
fixLJ activator: -0.51

What do the screens show for `Cn1nnnc1SCCNCc1ccc(OCc2ccccc2)cc1`?
fixLJ activator: -1.4

Results for Cc1cc(C)c2c(NCCCN(C)C3CCCC3)ncnc2n1 ?
fixLJ activator: -1.5

What do the screens show for `O=c1c2sc3ccccc3c2n(Cc2ccc(F)cc2)c(=O)n1Cc1ccccc1`?
fixLJ activator: -0.05

What do the screens show for `O=C(CSc1c2c(nc3ccc(Cl)cc13)CCCC2)NCc1ccccc1Cl`?
fixLJ activator: -0.11

What do the screens show for `CS(=O)(=O)N1CCN(C(=O)CCCc2nc(-c3cccnc3)no2)CC1`?
fixLJ activator: -0.39

Results for COc1ccccc1N1CCN(Cc2nnc(-c3ccccc3C)o2)CC1 ?
fixLJ activator: -0.59

What do the screens show for `O=C(C(c1cccnc1)N1CCOCC1)N1CCCOCC1` (stereo not drawn)?
fixLJ activator: -0.98

What do the screens show for `COc1ccc(C2=NC3(CCCCC3)N(CC(=O)Nc3ccc(C(C)C)cc3)C2=O)cc1`?
fixLJ activator: -0.47

How did COc1cc(C2Oc3nc(SC)nnc3-c3ccccc3N2C(C)=O)cc(Cl)c1OC (stereo not drawn) do in these assays?
fixLJ activator: -2.4

Results for Cn1cc(CN(C(=O)Nc2ccc(Cl)c(Cl)c2)C2CCCCC2)c2ccccc21 ?
fixLJ activator: -0.65

How did CCOc1ccccc1CN(CCc1ccc2c(c1)OCO2)Cc1cc(OC)c(OC)cc1OC do in these assays?
fixLJ activator: -2

Results for Cc1cc(C)c2c(=O)cc(C(=O)Nc3ccc(S(=O)(=O)N(C)Cc4ccccc4)cc3)oc2c1 ?
fixLJ activator: -1.6

Results for COc1cccc(-n2c(=O)c3sc4ccccc4c3n(CC(=O)Nc3ccccc3C)c2=O)c1 ?
fixLJ activator: -0.23

What do the screens show for `CN(C(=O)Cn1c(=O)n(CCCS(=O)(=O)C2CCCCC2)c(=O)c2ccccc21)c1ccccc1`?
fixLJ activator: -0.4

How did CCOc1ccc(NS(=O)(=O)c2ccc3[nH]cc(C(=O)N4CCCCCC4)c(=O)c3c2)cc1 do in these assays?
fixLJ activator: 0.19

How did COc1ccc(NC(=O)COc2ccc(-c3nn(C)c(=O)c4ccccc34)cc2)cc1 do in these assays?
fixLJ activator: -0.71

Results for O=c1n(CCCN2CCN(c3cccc(Cl)c3)CC2)nc2ccccn12 ?
fixLJ activator: -0.13

How did CSCc1noc(CN2CCN(c3ncccc3C(N)=O)CC2)n1 do in these assays?
fixLJ activator: -0.97

Results for COc1ccc(OC)c(-c2nc3cc(C)ccc3cc2CO)c1 ?
fixLJ activator: -0.2

What do the screens show for `Cc1ccc(Cl)cc1N1CCN(C(=O)Cn2ncc3c4ccccc4n(C)c3c2=O)CC1`?
fixLJ activator: -1.4

How did Cc1ccc(C)c(CN2C(=O)C(O)(c3c[nH]c4ccccc34)c3ccccc32)c1 (stereo not drawn) do in these assays?
fixLJ activator: -0.43

Results for Cn1cccc1C(=O)N1CCC2(CC1)OCCc1cc(C(=O)O)sc12 ?
fixLJ activator: 0.72

What do the screens show for `COCCN1Cc2cccc(C(=O)Nc3ccc(C)cc3C)c2C1=O`?
fixLJ activator: -1.2

What do the screens show for `CCC(O)c1nc2ccccc2n1Cc1cc(C)ccc1C` (stereo not drawn)?
fixLJ activator: -0.7

What do the screens show for `N#C/C(=C/c1ccc(Cl)cc1)c1nc(-c2ccc(Br)cc2)cs1`?
fixLJ activator: -1.2

What do the screens show for `Cc1cc(N2CCC(C)CC2)nc2ccc(NC(=O)Cc3c(F)cccc3Cl)cc12`?
fixLJ activator: -1.6

Results for CCCOc1ccc(-c2nn(-c3ccccc3)cc2C2NC(=O)NC(C)=C2C(=O)OC)cc1 (stereo not drawn) ?
fixLJ activator: -0.63

What do the screens show for `CCOC(=O)C1CCCN(c2nc3c(S(=O)(=O)c4ccc(C)c(C)c4)nnn3c3ccc(Cl)cc23)C1` (stereo not drawn)?
fixLJ activator: -0.55

Results for O=C1CCN(c2ccccc2C(=O)N2CC3CC(O)CC3C2)C(=O)N1 (stereo not drawn) ?
fixLJ activator: -1.6

What do the screens show for `Cc1nn(CC(=O)N2CCN(c3ccccc3)CC2)c(=O)c2cc3cc(F)ccc3n12`?
fixLJ activator: -1.8

What do the screens show for `COc1ccc(CCNC(=O)C2CCCN(c3nc4c(C)cc(C)cc4s3)C2)cc1OC` (stereo not drawn)?
fixLJ activator: -1.3

What do the screens show for `CCc1ccc(-n2nc(CO)c(C(=O)NCc3cccnc3)n2)cc1`?
fixLJ activator: -0.52

What do the screens show for `COc1ccccc1C(=O)n1nc(-c2ccccc2)nc1NCc1ccc(Cl)cc1`?
fixLJ activator: -0.11

Results for COc1cc(C2CC(=O)N(Cc3ccc(F)cc3)c3ccccc3S2)cc(OC)c1OC (stereo not drawn) ?
fixLJ activator: -0.17

How did CC(=O)OC1C=C2C(Cl)=C[C@@H]3[C@H](CC[C@@]4(C)[C@H]3CC[C@]4(OC(C)=O)C(C)=O)[C@@]2(C)CC1 (stereo partly drawn) do in these assays?
fixLJ activator: -1.6

What do the screens show for `COc1ccccc1C(=O)NC1=NC(c2ccc(Br)cc2)CC(=O)N1` (stereo not drawn)?
fixLJ activator: -2.3

Results for CC(C)c1ccc(Cc2cn3cc(-c4cc5ccccc5oc4=O)nc3s2)cc1 ?
fixLJ activator: -0.54

What do the screens show for `COc1ccc(-c2noc(CSc3nnc(Cc4ccccc4)n3-c3ccccc3)n2)cc1OC`?
fixLJ activator: -1.9

Results for COCCNC(=O)c1cc2c(s1)C1(CCN(c3ncccn3)CC1)OCC2 ?
fixLJ activator: 0.27

How did CCc1nc(NC(C)c2ccc(S(C)(=O)=O)cc2)c2cnn(C)c2n1 (stereo not drawn) do in these assays?
fixLJ activator: -0.05

Results for CCOC(=O)CC(NC(=O)Cn1nnc(-c2ccc(C(F)(F)F)cc2)n1)c1ccc(C)cc1 (stereo not drawn) ?
fixLJ activator: -3

What do the screens show for `Cc1ccc(C)c(Nc2nc(-c3ccccc3)c3cc(Br)ccc3n2)c1`?
fixLJ activator: 1.1

How did CCCCC(c1cccnc1)N(C)C(=O)NCc1nnc(CC)s1 (stereo not drawn) do in these assays?
fixLJ activator: -0.53

Results for COc1ccc(NC(=O)C2CCN(S(=O)(=O)c3c(C)noc3/C=C/c3cccs3)CC2)cc1Cl ?
fixLJ activator: -1.1

How did COc1ccc(CCNC(=O)Cn2ncc3c(C)n(Cc4ccccc4F)c(C)c3c2=O)cc1OC do in these assays?
fixLJ activator: -1.8

How did O=C(CCC1N=C2c3ccccc3N=C(SCc3ccc(F)cc3)N2C1=O)N1CCN(c2ccccc2)CC1 (stereo not drawn) do in these assays?
fixLJ activator: -2

How did CCn1cc(C(=O)NCCc2ccc(OC)c(OC)c2)c(=O)c2cc(S(=O)(=O)N3CCOCC3)ccc21 do in these assays?
fixLJ activator: -0.78

How did Cc1cn[nH]c1C1CCN(C(=O)CCC(=O)c2ccc(F)cc2)CC1 do in these assays?
fixLJ activator: 0.83

Results for CCOc1ccc(S(=O)(=O)N(CC(=O)Nc2ccc(OC)c(Cl)c2)c2ccccc2)cc1 ?
fixLJ activator: -0.02

Results for CCc1nnc(NC(=O)c2nc(S(=O)(=O)Cc3ccc(C)cc3)ncc2Cl)s1 ?
fixLJ activator: -2.9

What do the screens show for `CC(C)COCC(CN(Cc1ccccc1)c1ccccc1)N1CCCC1` (stereo not drawn)?
fixLJ activator: -2.5&-0.12

What do the screens show for `Cc1ccc(-c2cc(C(=O)NCc3cnn(C)c3)c3cc(Br)ccc3n2)cc1`?
fixLJ activator: -2.5

What do the screens show for `O=C(NCc1ccccc1Cl)c1cc2ccccc2o1`?
fixLJ activator: -0.45

Results for COc1ccc(CNC(=O)c2cc(Nc3ccccc3C)nc3ccccc23)cc1 ?
fixLJ activator: -1.8

How did Cc1nc2cc(-c3cccc(F)c3)nn2c(C)c1CCC(=O)NC1CCCCC1 do in these assays?
fixLJ activator: 0.95

What do the screens show for `O=C(CCc1ccc(O)cc1)N1CC[C@](Cc2ccccc2)(C(=O)O)C(O)C1` (stereo partly drawn)?
fixLJ activator: -0.37

What do the screens show for `CC(=O)N1CCC(n2nccc2NC(=O)CCOc2ccccc2)CC1`?
fixLJ activator: -2.8

What do the screens show for `Cc1ccc(F)cc1NC(=O)CNC(=O)c1cccc(-c2ncc[nH]2)c1`?
fixLJ activator: 0.14

How did COc1cccc2c1C1(CCN(C(=O)c3ccc4n[nH]nc4c3)CC1)OCC2 do in these assays?
fixLJ activator: 2.3

What do the screens show for `Cc1ccc(S(=O)(=O)N2CCC(O)[C@@](CC3CC3)(C(=O)O)C2)cc1` (stereo partly drawn)?
fixLJ activator: -0.13

What do the screens show for `O=C(CCNCC1(O)CCCN(CCC2CCCCC2)C1=O)N1CCCC1` (stereo not drawn)?
fixLJ activator: 1.1

What do the screens show for `Cc1ccccc1Nc1c(-c2ccc(N3CCOCC3)cc2)nc2ncccn12`?
fixLJ activator: 0.32

Results for NCc1ccc(S(N)(=O)=O)cc1 ?
fixLJ activator: -0.05

How did CCOC(=O)c1cc2c(=O)n3ccccc3nc2n(Cc2ccco2)c1=NC(=O)c1ccc(Br)cc1 do in these assays?
fixLJ activator: 0.6

Results for COc1ccc(-c2cc(C(F)(F)F)n3nc(C)c(-c4ccccc4)c3n2)cc1OC ?
fixLJ activator: -0.87

How did COCCN1CC(CN2CCN(c3ccc(C(C)=O)cc3)CC2)CC1=O (stereo not drawn) do in these assays?
fixLJ activator: -0.71

Results for COc1ccc(-c2c(C#N)c(SCC(=O)Nc3ccc(C)c(C)c3)nc(C)c2C(=O)Nc2ccc(Cl)cc2)cc1 ?
fixLJ activator: -1.8

What do the screens show for `COc1ccc(CC2c3cc(OC)c(OC)cc3CC[N+]2(C)CCC(=O)OCCCCCOC(=O)CC[N+]2(C)CCc3cc(OC)c(OC)cc3C2Cc2ccc(OC)c(OC)c2)cc1OC` (stereo not drawn)?
fixLJ activator: -0.96

What do the screens show for `CCc1cccc(NC(=O)CCc2c(C)nc3c(-c4ccccc4)c(C)nn3c2C)c1`?
fixLJ activator: -2.7

Nothing new here: eleven of the compounds above.
What do the screens show for `O=C(CCc1ccc(O)cc1)N1CC[C@](Cc2ccccc2)(C(=O)O)C(O)C1` (stereo partly drawn)?
fixLJ activator: -0.37

What do the screens show for `CC(=O)N1CCC(n2nccc2NC(=O)CCOc2ccccc2)CC1`?
fixLJ activator: -2.8

What do the screens show for `Cc1ccc(F)cc1NC(=O)CNC(=O)c1cccc(-c2ncc[nH]2)c1`?
fixLJ activator: 0.14

How did COc1cccc2c1C1(CCN(C(=O)c3ccc4n[nH]nc4c3)CC1)OCC2 do in these assays?
fixLJ activator: 2.3

What do the screens show for `Cc1ccc(S(=O)(=O)N2CCC(O)[C@@](CC3CC3)(C(=O)O)C2)cc1` (stereo partly drawn)?
fixLJ activator: -0.13

What do the screens show for `O=C(CCNCC1(O)CCCN(CCC2CCCCC2)C1=O)N1CCCC1` (stereo not drawn)?
fixLJ activator: 1.1

What do the screens show for `Cc1ccccc1Nc1c(-c2ccc(N3CCOCC3)cc2)nc2ncccn12`?
fixLJ activator: 0.32

Results for NCc1ccc(S(N)(=O)=O)cc1 ?
fixLJ activator: -0.05

How did CCOC(=O)c1cc2c(=O)n3ccccc3nc2n(Cc2ccco2)c1=NC(=O)c1ccc(Br)cc1 do in these assays?
fixLJ activator: 0.6

Results for COc1ccc(-c2cc(C(F)(F)F)n3nc(C)c(-c4ccccc4)c3n2)cc1OC ?
fixLJ activator: -0.87

How did COCCN1CC(CN2CCN(c3ccc(C(C)=O)cc3)CC2)CC1=O (stereo not drawn) do in these assays?
fixLJ activator: -0.71

(continued)
How did CCC1CCCCN1CCCNC(=O)c1c(O)nc2ccccn2c1=O (stereo not drawn) do in these assays?
fixLJ activator: 0.26

What do the screens show for `Cc1cn(S(=O)(=O)c2ccc(F)c(Cl)c2)cn1`?
fixLJ activator: -0.16

How did Cc1ccc(C)c(NC(=O)CSc2nnc(CNC(=O)c3ccccc3)n2-c2ccccc2)c1 do in these assays?
fixLJ activator: -0.73

How did CN(CC1Cc2ccccc2O1)C(=O)c1cnn2ccn(C)c12 (stereo not drawn) do in these assays?
fixLJ activator: -1.8

Results for COc1ccc(OC)c(/C=C(/C#N)c2nc(-c3ccc(-c4ccccc4)cc3)cs2)c1 ?
fixLJ activator: -5.8

Screens: PubChem BioAssay, ICCB-Longwood Screening Facility, Harvard Medical School
